Bioassay records from PubChem BioAssay.
Sa helicase inh: blocks Staphylococcus aureus DNA helicase | purified S. aureus helicase, fluorescence unwinding assay; about half of the hits fall short of the stated cut | 120,000 tested, 0.05% active | AID 485395 | inhibition, %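 (tested at about 80 µM)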;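 active = both duplicates at 50% or more, or one of them with a favoured structure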;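 note: 0% = mean of negative control wells and 100% = mean of positive control wells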
MgrA DNA FP: alters Staphylococcus aureus MgrA binding to DNA. fluorescence polarization. inhibition, %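 (about 10 µg/mL by stock and volumes)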. 84,000 tested, 0.13% active;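 active = above 50% in either of two replicates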;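 note: 0% = protein plus DNA without compound and 100% = DNA alone without protein; higher means less MgrA bound to DNA so lower polarization; one replicate is shown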
Active calls of the source: *; . = not tested or not shown; & = joins results of further samples.

SMILES	Sa helicase inh	MgrA DNA FP
COC(=O)CC(=O)Nc1cc2c(cc1N1CCCC1)n(C)c(=O)n2C	7	.
CN(C)S(=O)(=O)c1cccc(C(=O)c2nccn2C)c1	-10	.
COc1cc2c(=O)n(Cc3ccccc3Cl)c(=O)n(CC(=O)NC3CCCCC3)c2cc1OC	4	0.3
COC(=O)c1ccc(-c2nc3ccccc3o2)cc1	-6	-0.6
CC(C)c1ccc(NC(=O)[C@@H](c2ccccc2)N2Cc3ccccc3C2=O)cc1	-3	8.4
CC(C)(C)NS(=O)(=O)NC(C)(C)C	.	-2.2
O=C(CN1C(=O)c2ccccc2S1(=O)=O)N1CCc2ccccc2C1	5	3.9
Cc1cc(C)c(-c2cc(C(F)(F)F)no2)c(=O)[nH]1	5	0.5
CCOCC(=O)N1CCN(CC)CC1	7	2.1
CCOc1ccc(-c2nc(C#N)c(N3CCN(CC)CC3)o2)cc1	2	.
CN(CC(=O)NCc1ccc(Cl)cc1)S(=O)(=O)c1ccc2c(c1)CCCC(=O)N2	10	.
CCC(=O)N1CCc2cc(S(=O)(=O)N(CC)c3ccccc3)ccc21	17	-0.6
CCOC(=O)COc1ccc2c(C)cc(=O)oc2c1	4	-2.5
O=C(COc1ccccc1)Nc1c(C(=O)c2ccccc2)oc2ccccc12	-7	0.6
OCC1(CO)COC(c2ccc(Cl)cc2Cl)=N1	2	-0.9
O=C(NC(=S)N1CCN(c2ccccc2)CC1)c1ccccc1	16	-0.3
Cc1ccccc1Nc1nnc(SCC(C)C)s1	-5	.
CCCCCn1cn[nH]c1=S	12	.
CC(C)(C)N(C(=O)c1ccc(S(=O)(=O)N2CCCC2)cc1)C(=O)N1CCCCC1	5	.
COC(=O)c1sccc1S(=O)(=O)N1CCCC1	8	.
COc1ccc(C(=O)N2CCN(C(C)C)CC2)cc1	9	-6.7
CCOC(=O)c1c(C)n(-c2ccccc2)c2ccc(OC(=O)c3ccc(S(=O)(=O)N4CCOCC4)cc3)cc12	.	0.4
CCNc1nc(NCC)nc(OCCNS(=O)(=O)c2ccc(C)cc2)n1	.	-1.3
CCOc1ncccc1C(=O)Nc1ccnn1C(C)C1CC1 (configuration not stated)	7	.
CN1CCCN(C(=O)Nc2ccc(F)cc2)c2nc3ccccc3nc21	4	.
c1ccc(OCc2nc3ccccc3[nH]2)cc1	-12	.
CCOC(=O)c1nccn1CC(=O)Nc1ccccc1CC	-14	2.2
Cc1ccc(Nc2nnc(-c3cc4cc(Cl)ccc4oc3=O)s2)cc1	-1	.
CC(Oc1ccc(Cl)cc1Cl)C(=O)Nc1nccs1 (configuration not stated)	.	0.7
C/C(=N\O)c1c(O)cc(-c2ccccc2)n(-c2ccccc2)c1=O	.	-0.5
Cc1cc(C)n2cc(CSCC(=O)O)nc2n1	13	.
O=C(O)CCCNC1=NCCN1	1	1.5
O=C(Nc1cc(-c2nc3ccccc3o2)ccc1Cl)c1ccc2c(c1)OCCO2	.	1.8
CCSc1nc2nn(-c3ccccc3)c(=O)c-2c2n1CCCCC2	14	.
CCc1ccccc1NC(=O)Cc1ccc(-n2cccc2)cc1	10	.
Cc1nn(-c2ccccc2)nc1CNC(=O)c1ccc2nsnc2c1	24	.
Cn1c2c(c(=O)n(C)c1=O)CN(C1CCCC1)CN2	2	-0.2
CCN(c1ccccc1)S(=O)(=O)c1ccc(C(=O)N2CCN(c3ncccn3)CC2)cc1	2	.
Cc1ccc(N=C2NC(=O)CC(C(=O)Nc3ccc(Cl)cc3)S2)cc1C (configuration not stated)	12	-1.8
CCN(CC1COc2ccccc2O1)C(=O)c1cnccn1 (configuration not stated)	24	.

In a second layout: 4 of the compounds above.
mol: CCOCC(=O)N1CCN(CC)CC1
- Sa helicase inh: 7
- MgrA DNA FP: 2.1
mol: CCOc1ccc(-c2nc(C#N)c(N3CCN(CC)CC3)o2)cc1
- Sa helicase inh: 2
- MgrA DNA FP: .
mol: CN(CC(=O)NCc1ccc(Cl)cc1)S(=O)(=O)c1ccc2c(c1)CCCC(=O)N2
- Sa helicase inh: 10
- MgrA DNA FP: .
mol: CCC(=O)N1CCc2cc(S(=O)(=O)N(CC)c3ccccc3)ccc21
- Sa helicase inh: 17
- MgrA DNA FP: -0.6

Next section
SMILES	Sa helicase inh	MgrA DNA FP
CCOC(=O)CSc1nnc(NC(C)=O)s1	-8	.
CCOC(=O)c1cc2c(=O)n3ccccc3nc2n(C2CCCCC2)c1=N	-96	.
Oc1ccc(-n2nnnc2SCc2ccc(-n3ccnc3)cc2)cc1	11	.
Cc1cccc(Nc2cc(Nc3ccc4c(c3)n(C)c(=O)n4C)ncn2)c1	-28	.
CC1=C(c2ccccc2)S(=O)(=O)NC1=NC1CCN(Cc2ccccc2)CC1	16	.
COc1cccc2c1OC(c1ccco1)N1N=C(c3ccccc3)CC21 (configuration not stated)	-2	.
CCOC(=O)C1=C(C)OC2=C(C(=O)CC(C)(C)C2)C1c1ccc(CC)s1 (configuration not stated)	-4	2.2
CCOC(=O)c1cnc2c(Cl)cc(Cl)cc2c1NCCOCCO	-23	.
O=C1CC(c2cccc(O)c2)C2=C(CC(c3ccc(F)cc3)CC2=O)N1 (configuration not stated)	38	.
Nc1no[n+]([O-])c1C(=O)NCCO	1	-0.7
Cc1cc(C)n(CCCNC(=O)c2ccccc2NC(=O)c2ccco2)n1	-2	.
COc1cc(CCC(=O)NNC(=S)Nc2ccc(F)cc2)cc(OC)c1OC	.	0.0
COc1cccc(NC(=O)c2ccc(-n3cccn3)nc2)c1	.	-1.2
COc1cccc(NC(=O)Cn2ncc3c2-c2ccccc2OC3)c1	-10	.
Cc1ccc(S(=O)(=O)N2CCN(C3=CC(=O)CC(C)(C)C3)CC2)cc1	6	.
CCCNS(=O)(=O)c1ccc(OCC(=O)NCCC2=CCCCC2)cc1	10	0.1
COC(=O)Nc1ccccc1	-13	.
N/C(=N\O)c1ccc2c(c1)OCO2	.	-1.9
N#Cc1c(NS(=O)(=O)c2ccccc2)n(-c2ccccc2)c2nc3ccccc3nc12	-7	.
Nc1ccccc1NC(=O)CCC(=O)O	-3	4.0
Cc1cc2cc(CN3C(=O)c4ccccc4C3=O)ccc2n1C	4	.
CSc1ccccc1NC(=O)CSc1ncccn1	0	3.6
N#C/C(=C\c1ccc(F)cc1)c1csc2ccccc12	.	0.8
COc1ccc(-c2cc(-c3ccccc3O)n(C3C(=O)Nc4ccc(Br)cc43)n2)cc1 (configuration not stated)	23	-6.9
O=C(NCc1ccccc1)Nc1ccccc1F	0	1.5
NC(=S)N/N=C1\CCSc2ccc(F)cc21	.	8.4
C=CCNc1oc(Cc2ccccc2)nc1C#N	14	-0.2
CC1Cc2ccccc2N1C(=O)Nc1c[nH]c2ccccc12 (configuration not stated)	3	.
O=C(CSc1nnc(SCC(=O)NC2CC2)s1)NC1CC1	0	.
COc1ccc(C(=O)N2CCC(O)(c3ccc(Cl)cc3)CC2)cc1OC	.	-1.6
CC(C)OC1(O)C(=O)c2ccccc2C(=O)C1(O)OC(C)C (configuration not stated)	3	4.8
FC(F)(F)c1cnc(-n2cncn2)c(Cl)c1	.	-0.4
CC(C)CN(CC(C)C)S(=O)(=O)c1ccc(-c2ccc(=O)[nH]n2)s1	23	.
O=C(CSCc1ccccc1)N1CCc2ccccc21	17	.
Cc1nc(-c2ccccc2)cs1	.	1.3
Cc1ccc(OCCn2c(CC(C)(C)C)nc3ccccc32)cc1	15	-0.2
CCCCCc1nc2ccccc2[nH]1	26	.
O=C1CC2(CCN(C(=O)c3ccccc3)CC2)Oc2ccccc21	8	.
COCCCn1c(=O)c2ccccc2n(CC(N)=O)c1=O	-4	-1.2
O=C(O)c1ccc(NC2OC(CO)C(O)C2O)cc1 (configuration not stated)	-2	27
O=C(Nc1cccc(O)c1)C1CC(c2cccc(Br)c2)=NO1 (configuration not stated)	4	-1.4
CCc1nc2c(sc(=S)n2-c2ccccc2)c(=O)[nH]1	7	.
O=C(Cn1ncc(Cl)c(Cl)c1=O)c1ccc(S(=O)(=O)N2CCCC2)cc1	3	.
CCCc1ccc(OCC(O)CN2CCCCC2)cc1 (configuration not stated)	-5	.
COc1ccccc1-n1cnc(N)c1C(=O)c1ccccc1	14	.
COc1ccc(/C=N/C2=NNC(=O)CS2)cc1	-1	-0.7
Cc1ccc(NC(=O)Cc2cccs2)cc1C	7	-0.2
O=C1CCC(NC(=O)OCc2ccccc2)(C(=O)O)O1 (configuration not stated)	9	-2.9
COC(=O)C(NC(=O)c1ccccc1)=C1C=C(C)OC(C)=C1	6	-0.9
COc1ccc(-c2cc(C(=O)NC(C)C)no2)cc1	2	.

Going on with the list:
SMILES	Sa helicase inh	MgrA DNA FP
C/C(=N\O)C(C)(C)Nc1ccc(C(C)(C)C)cc1	.	-1.4
O=c1oc2ccccc2c(N2CCN(c3ccccc3)CC2)c1CN1CCCC1	3	0.0
COC(=O)CNc1ccc(Br)cc1	7	3.0
CCOC(=O)c1c2n(c3ccc(OC(C)=O)cc13)CCC2	-5	.
CC(C)c1ccccc1NC(=O)COc1ccccc1F	7	-2.2
O=C(OCC(=O)c1c[nH]c2ccccc12)c1cccc(O)c1	11	.
CN(c1ccccc1)S(=O)(=O)c1ccc(Cl)cc1	10	-0.9
COC(=O)C(C#N)=C(SC)SC	11	.
CCOC(=O)C1CCN(C(=O)c2ccc(CNS(=O)(=O)c3ccc(C)cc3)cc2)CC1	-3	1.9
CCOC(=O)c1[nH]c(C(=O)O)c(CC)c1C	10	-1.1
CN1C(=O)/C(=C(\C#N)C(=O)Nc2cc(Cl)ccc2Cl)c2ccccc21	-87	-0.8
CCOC(=O)c1ccc(NCc2cc(Br)ccc2O)cc1	15	.
Cc1ccc(C)c(CSC2=NN3CCCC(=O)N=C3S2)c1	6	.
Cc1ccsc1CNC(=O)Nc1ccc(C(F)(F)F)cc1	.	3.3
Cc1ccc(C2CC(=O)C3=C(C2)Nc2ccccc2NC3c2cccnc2)cc1 (configuration not stated)	14	-2.0
CSc1nnc2c(n1)OC(C1CC=C(C)CC1)Nc1ccccc1-2 (configuration not stated)	-16	13
COc1ccc2c(=O)c(N3C(=O)c4ccccc4C3=O)c(C)oc2c1	8	1.5
Cc1ccccc1NS(=O)(=O)c1ccc2oc(=O)ccc2c1	3	-2.2
Cc1ccccc1NS(=O)(=O)c1cc(Br)cnc1N	-20	.
CN(CC(=O)Nc1ccc(Cl)c(Cl)c1)CC(=O)Nc1ccc2[nH]c(=O)[nH]c2c1	-9	.
O=C(C1COc2cc(S(=O)(=O)N3CCCC3)ccc2O1)N1CCCC1 (configuration not stated)	-5	.
CC(C)C(=O)Nc1c(C(=O)NC(C)(C)C)oc2ccccc12	-23	.
O=C(CSc1ccc(-c2ccncc2)nn1)N1CCCCC1	2	0.9
O=C(CC(=O)N1CCc2ccccc2C1)N1CCc2ccccc2C1	14	-0.9
Cc1cc(C)c(C#N)c(N2CCN(c3cccc(C)c3C)CC2)n1	-18	1.5
Cc1ccc(C(=O)c2cccc(N)c2)cc1C	18	2.5
Cn1c(N)c(C(=O)Cn2nnc3ccccc3c2=O)c(=O)n(C)c1=O	-5	.
CN(C)/C=N/C(=S)Nc1cccc(F)c1	2	.
O=C(O)c1cccc(N2C(=O)c3ccc(C(=O)O)cc3C2=O)c1	1	0.2
COc1ccc(CN(C)C(=O)c2ccc(OC)c(OC)c2)cc1	16	0.9
COc1ccc(OCCOC(=O)c2cccn2C)cc1	11	.
COC(=O)Cn1c(=O)oc2ccc(Cl)cc21	2	-0.8
O=C1OC(C(=O)NC2CCCCC2)Cc2ccccc21 (configuration not stated)	3	0.6
Cc1ccc(Cl)cc1NC(=S)N(CCC#N)/N=C/c1ccc2c(c1)OCO2	.	2.4
N#CCC(=O)Nc1ccc(F)c(Cl)c1	.	-0.3
CCCn1c(SCC(=O)Nc2ccccc2C(F)(F)F)nnc1-c1ccoc1C	8	-1.1
N#CC1=C(N)Oc2nc[nH]c(=O)c2C1c1ccncc1 (configuration not stated)	-11&19	-0.8&-1.1
Cn1c(-c2ccccc2)cn2cc(-c3ccccc3)nc12	8	-0.2
CSC(=NCc1ccco1)Nc1ccc(C)cc1C	.	-1.1
CN1CCCC(OC(=O)c2ccc(F)cc2)C1 (configuration not stated)	-1	1.6
CC(=O)SCc1n[nH]c(=S)n1C(C)=O	1	.
Cc1ccc(SCCC(=O)NCCc2ccc(F)cc2)cc1	7	-2.4
COc1ccncc1C(=O)Nc1cc(Cl)cc(Cl)c1	.	-0.2
CCn1c(NCc2ccccc2O)nc2ccccc21	10	.
CNC(=O)Oc1ccc2c(c1)[C@]1(C)CCN(C)[C@@H]1N2C	.	3.4&-0.1&0.8
NC(=O)c1sc(=S)n(-c2ccccc2)c1N	12	0.5
CC(C)(C)NC(=O)NC(=O)Cn1nc(C(=O)O)c2ccccc2c1=O	14	.
COc1ccc(C(=O)NC(=O)CSc2n[nH]c(N)n2)cc1	0	.
Cc1ccc(C(=O)c2c(NC(=O)CSc3nnnn3C)sc3c2CCCC3)cc1	-9	.
Cc1onc(-c2ccccc2)c1C(=O)NC(=S)Nc1ccc(Cl)cc1	.	0.4
NC(=O)C1CCN(Cc2ccc(Cl)cc2)CC1	18	-13
N#Cc1c(-c2cccs2)cc(-c2ccc(C(=O)O)cc2)nc1SCc1cccs1	2	30
O=C(COc1ccccc1C(=O)O)NCCN1CCOCC1	0	2.0

Profiles, quoted from the list.
Entry for CCn1c(NCc2ccccc2O)nc2ccccc21 = Sa helicase inh = 10; MgrA DNA FP = .
Entry for N#Cc1c(-c2cccs2)cc(-c2ccc(C(=O)O)cc2)nc1SCc1cccs1 = Sa helicase inh = 2; MgrA DNA FP = 30
Entry for Cc1ccc(C(=O)c2c(NC(=O)CSc3nnnn3C)sc3c2CCCC3)cc1 = Sa helicase inh = -9; MgrA DNA FP = .
Entry for COc1ccc(C(=O)NC(=O)CSc2n[nH]c(N)n2)cc1 = Sa helicase inh = 0; MgrA DNA FP = .

These rows are one share of the data, so the mix of outcomes need not match the whole.
